# Screening results: PubChem BioAssay, National Center for Advancing Translational Sciences (NCATS)
# gsp antag: antagonists of gsp mutant (McCune-Albright syndrome); Potency, µM (series often up to 76.9 µM), inactives show at the top dose activity change, negative = inhibition, actives largely listed as inhibitors; AID 624288; gsp-mutant cells, cAMP HTRF, 30 min; control for the full effect not named in the record; hit rate 0.4% among 340,000; active = falling curve of any shape with a large fitted effect; inconclusive = falling curve, mostly with a smaller effect; inactive = flat or rising curve; cell line not stated here;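 note: intracellular cAMP measured with PDE inhibitor Ro 20-1724 present during compound exposure; potency is the fitted concentration of half-maximal effect; % is set by controls: 0 for no effect and ±100 for the full control effect; nearly all actives have a fitted effect of over 65% in size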
#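 HTRF cAMP measurement after 30 min RT detection following 30 min, 37C compound treatment alongside […] (added as 300 uM solution) in G418-selected cells seeded at 2000/well and grown 16–24 h.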
# Sfp PPTase inh: Sfp phosphopantetheinyl transferase inhibition. Q9F4F7. Biochemical Sfp PPTase activity, qHTS. Potency, µM, inactives show max response, negative = inhibition, usual class: inhibitors. hit rate 3.5% among 310,000; active = well fitted inhibition curve with a large enough effect; inconclusive = small, poorly fitted or top-dose-only effect, or another doubt; inactive = no such curve, though single readings can be large or run the other way;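 note: the enzyme is Sfp with the accession as filed and its product quenches rhodamine fluorescence; potency is the fitted concentration of half-maximal effect; 0% = enzyme reaction without inhibitor and -100% = no enzyme wells; top concentration of the series not given in the record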
#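 Compounds were incubated with enzyme (final 15 nM) for 15 min at room temperature before substrate addition started the reaction. Fluorescence at 525 nm excitation, 598 nm emission was recorded immediately and after 30 minutes.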
# gsp ag: gsp mutant agonism. gsp mutant cells, cAMP HTRF, 30 min; control for the full effect not named in the record. AID 624287. Potency, µM (highest dose often 76.9 µM), without a hit: top-dose activation (cAMP increase), actives largely listed as activators. hit rate 0.13% among 340,000; active = well fitted activation curve with a large enough effect; inconclusive = small, poorly fitted or top-dose-only effect, or another doubt; inactive = no such curve, though single readings can be large or run the other way; cell line not stated here;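 note: phosphodiesterase inhibitor Ro 20-1724 added with compounds to block cAMP breakdown; potency is the fitted concentration of half-maximal effect; nearly all actives have a fitted effect of over 60% in size; about a fifth of the inactives were tested at one dose only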
#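 Cells in DMEM/10% FBS with G418 were pretreated with compounds in DMSO plus […] (300 uM stock) for 30 min at 37C. cAMP was measured by HTRF (cAMP-d2 plus anti-cAMP antibody-K) after 30 min at room temperature.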
# Menin-MLL FL inh: menin-MLL binding inhibition, fluorescein peptide; 290,000 tested, under 10 active; Fluorescence polarization, fluorescein-MLL peptide displacement from menin; AID 1766; FP activity change, % at 61.4 µM; inconclusive = falling polarisation curve, or a change in total fluorescence; inactive = total fluorescence flat and polarisation flat or rising; no compound was filed as active; the % refers to the polarisation; negative = inhibition;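 note: % of control where 0% means no effect; inhibitors lower the polarisation; unlabelled MLL peptide was the positive control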
# D2 agonist: agonists of human D2 dopamine receptor (beta-arrestin). P14416. hit rate 0.084% among 360,000. DiscoveRx PathHunter D2 beta-arrestin, luminescence, 90 min; 100% = 57 uM dopamine signal. AID 624465. activation, % (no concentration beside the values); in the data active = activation above about 40%; inconclusive = about 15% to 40%; inactive = below about 15%; note: compound concentration not given in the record; the text of the record calls up to 30% inactive
# Target sequence (P14416 whole entry, looked up): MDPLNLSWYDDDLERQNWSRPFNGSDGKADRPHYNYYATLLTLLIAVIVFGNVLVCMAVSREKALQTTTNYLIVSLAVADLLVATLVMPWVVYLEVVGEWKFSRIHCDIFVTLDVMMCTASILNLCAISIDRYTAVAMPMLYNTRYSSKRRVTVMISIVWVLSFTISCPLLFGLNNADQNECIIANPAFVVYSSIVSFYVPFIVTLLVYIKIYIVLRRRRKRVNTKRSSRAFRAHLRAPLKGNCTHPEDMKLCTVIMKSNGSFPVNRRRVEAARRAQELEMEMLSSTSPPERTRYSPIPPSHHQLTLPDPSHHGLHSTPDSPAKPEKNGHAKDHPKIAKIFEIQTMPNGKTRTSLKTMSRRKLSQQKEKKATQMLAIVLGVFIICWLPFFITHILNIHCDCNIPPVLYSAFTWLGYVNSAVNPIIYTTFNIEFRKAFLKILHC
#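 Agonist mode: compounds alone added to overnight-plated D2 PathHunter cells for 90 min at 37 C, with 57 uM final dopamine (EC100) defining full response. Beta-arrestin recruitment detected by chemiluminescent reagent, read after 1 h at ambient temperature.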
# PINK1 expr mod: changes PINK1 expression; Potency, µM (series often up to 76.6 µM), inactives show at the highest dose activation (PINK1 increase), usual class: activators; PINK1 immunofluorescence, high-content cytometry, 24 h; hit rate 0.2% among 410,000; active = well fitted activation curve with a large enough effect; inconclusive = small, poorly fitted or top-dose-only effect; inactive = flat fitted curve, though single readings scatter; cell line not stated here;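 note: potency is the fitted concentration of half-maximal effect; % of control where 0% means no effect; nearly all actives have a fitted effect of over 65% in size; a mitochondrial uncoupler was the plate control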
#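 PINK1 protein, normally rapidly degraded, was detected by immunofluorescence after 24 hour compound treatment of a stable cell line. Titration data (5 concentrations) came from laser-scanning cytometry, with CCCP-treated wells as controls.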
# ClpP mod: qHTS Assay for Activators of ClpP; purified B. subtilis ClpP, FRET peptide cleavage, 20 min; Potency, µM (highest dose often 57.5 µM), for the others: at the highest dose activity change, negative = active; hit rate 1.9% among 340,000; AID 651965, 2013; active = well fitted falling curve with a large enough effect; inconclusive = small, poorly fitted or top-dose-only effect; inactive = no such curve, though single readings can be large or run the other way; note: potency is the fitted concentration of half-maximal effect; the source files actives as falling curves though it sought activators and does not explain the sign; nearly all actives have a fitted effect of over 65% in size; many hits overshoot -100%
# Target sequence (P80244 whole entry, looked up): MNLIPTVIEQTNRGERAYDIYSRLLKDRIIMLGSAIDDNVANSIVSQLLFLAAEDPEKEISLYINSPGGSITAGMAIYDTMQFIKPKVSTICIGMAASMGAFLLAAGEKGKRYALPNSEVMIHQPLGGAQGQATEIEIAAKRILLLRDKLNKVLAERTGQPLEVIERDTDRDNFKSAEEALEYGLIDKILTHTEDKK
#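 Buffer: 100 mM Tris/HCl pH8, 100 mM KCl, 0.05% low protease BSA, 2.5% glycerol, 0.01% Tween-20. ClpP 10 microg/mL final; 20 min RT; delta FRET normalized to ADEP and DMSO controls.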
# Starred values were filed as active, the others as inactive; u = inconclusive; x = no result given; [ ] = another dose, or the depositor's remark.
SMILES,gsp antag,Sfp PPTase inh,gsp ag,Menin-MLL FL inh,D2 agonist,PINK1 expr mod,ClpP mod
Cc1cccc(C)c1Nc1nnc(SCC(=O)NCc2ccco2)s1,-12%,-3%,4%,5.3,-8.1,-0.9%,0.6%
Cc1ccc(-n2c(CNc3ccc(F)cc3)nnc2SCC(=O)O)cc1,3%,3%,u,-1.7,1.8,1.7%,x
O=C(COc1ccc(Cl)cc1)NCc1nnc(SCC(=O)Nc2ccc3c(c2)OCCO3)o1,-14%,7%,-25%,1.1,-0.5,-1.8%,-0.4%
O=S(=O)(c1ccccc1)N1CCC2(CCCN(C(c3ccccc3)c3ccccc3)C2)CC1,x,11%,x,0.9,x,2.8%,x
CC(C)=C(NC(=O)c1ccccc1)C(=O)Nc1cccc(C(=O)O)c1,-4%,0%,-47%[inhibitor],-7.0,-6.3,-0.9%,-3.8%
O=C(O)c1ccc2c(c1)C(=O)N(CCC1=CCCCC1)C2=O,1%[15.4 µM],19%,25%,1.4,-4.4,-2.3%,0.8%
Cc1cccc2cc(CN(CCN3CCOCC3)C(=O)NCc3ccccc3)c(=O)[nH]c12,7%,22%,-4%,-1.4,-2.9,0.1%,-6.7%
Cc1ccccc1NC(=O)Nc1cc(-c2ccccc2)nn1C,10%,8%,1%[15.4 µM],-0.8,-6.8,-0.7%,0.6%
O=Cc1ccc(Cl)c(Cl)c1,1%,x,x,x,-2.2,-0.3%,1.9%
Cc1nnsc1C(=O)N1CCCC1(C)C(=O)O (stereo unspecified),x,x,x,x,-1.5,3.1%,-4.2%
CCOC(=O)C1CCN(CC(O)COc2ccc(S(=O)(=O)N3CCCC3)cc2[N+](=O)[O-])CC1 (stereo unspecified),-5%,x,15%,x,-2.2,1.7%,0.6%
COc1ccc(NC(=O)c2ccccc2F)cc1Cl,11%,5%,9%,2.9,-0.9,-2.1%,-3.9%
COc1ccc(S(=O)(=O)CCC(=O)NCCc2ccc(S(N)(=O)=O)cc2)cc1,4%,7%,-14%,-2.0,-0.8,0.1%,u
COc1cccc(CN2C(=O)C(C)N(C(=O)c3c(F)cccc3F)c3ccccc32)c1 (stereo unspecified),35µM*,u,-19%,-8.6,-1.5,-0.2%,1.4%
COc1ccc(Cl)cc1Nc1nc(-c2cccnc2)cs1,-3%,-9%,-55%[inhibitor],-5.1,-3.1,-1.0%,x
Cc1ccccc1-c1cnc(C(O)c2c(C)ccc3ccccc23)[nH]1 (stereo unspecified),x,x,x,x,-1.1,-1.0%,-5.0%
COc1cccc(CCC(=O)Nc2cccc(S(=O)(=O)N3CCCC3)c2)c1OC,-13%,x,-4%,x,-1.2,0.4%,-5.9%
COc1ccc(CNc2ncncc2-c2c(C)noc2C)c(OC)c1,x,12%,x,0.4,x,0.3%,x
CCN1C(=O)N[C@@H](c2cccc(C(F)(F)F)c2)C(C(C)=O)=C1C,5%,7%,0%,-1.6[11.7 µM],4.5,0.3%,-0.7%
S=C(NCCN1CCCCC1)Nc1ccccc1,4%,-1%,-50%[inhibitor],-0.1,-2.0,0.1%,-0.3%

# Shown tab-delimited: entries from further up
compound	gsp antag	Sfp PPTase inh	gsp ag	Menin-MLL FL inh	D2 agonist	PINK1 expr mod	ClpP mod
O=Cc1ccc(Cl)c(Cl)c1	1%	x	x	x	-2.2	-0.3%	1.9%
Cc1nnsc1C(=O)N1CCCC1(C)C(=O)O (stereo unspecified)	x	x	x	x	-1.5	3.1%	-4.2%

# (continued)
SMILES,gsp antag,Sfp PPTase inh,gsp ag,Menin-MLL FL inh,D2 agonist,PINK1 expr mod,ClpP mod
CN(C1CCCCC1)S(=O)(=O)c1cc2c3c(c1)CCN3C(=O)CC2,-1%,x,3%[15.4 µM],x,-0.5,5.1%,x
Cc1occc1-c1nnc(SCC(=O)NC(C)(C)C)n1C(C)c1ccccc1 (stereo unspecified),-12%,12%,u,6.6,-1.7,-0.7%,-0.6%
Cc1[nH]c2ccc(C(=O)NCCN3CCOCC3)cc2c1C,-13%,-1%,2%,x,-2.3,1.2%,-3.2%
COc1ccc(CC(NC(C)=O)C(=O)NC2CCN(C(=O)c3ccncc3)CC2)cc1OC (stereo unspecified),6%,9%,-3%,x,6.4,0.0%,1.6%
CCc1cccc(NC(=O)Cn2c3[n+](c4ccc(C(F)(F)F)cc42)CCCCC3)c1,11%,-41%,-8%,4.8,-2.6,1.9%,-2.6%
CCOC(=O)N1CCN(CC(O)COCc2ccc(Cl)cc2)CC1 (stereo unspecified),5%,-11%,-4%,3.1,-0.7,1.4%,14µM*
C/C(=C/c1ccccc1)C(=O)N1CCN(c2ccccc2F)CC1,5%,-1%,13%,-2.2,-1.4,-1.3%,x
COc1ccc(C(=O)c2c(-c3ccc(OC)cc3)oc3ccccc23)cc1,-9%,x,34%,x,0.3,2.3%,u
O=C(CSc1nnc(-c2c[nH]c3ccccc23)o1)NCC1CCCO1 (stereo unspecified),-5%,x,-43%[inhibitor],x,0.0,0.9%,-9.0%
S=C(Nc1ccc2nccnc2c1)N1CCCC1,x,u,19%[15.4 µM],8.3,3.1,1.3%,x
O=C(NCc1ccccn1)Nc1ccc(F)cc1F,5%,18%,-7%,6.3,-5.4,0.5%,-1.9%
Cc1ccc(C(C)(C)C)cc1S(=O)(=O)N1CCC(C(=O)N2CCN(c3ccc(O)cc3)CC2)CC1,-4%,x,-1%,x,15,-1.9%,-7.3%
CC(C)=C1SC(N2CCN(c3ccc(Cl)cc3)CC2)=NC1=O,-27%,11%,-13%[15.4 µM],-0.1,5.9,-0.7%,x
CN(C)c1ccc(C(=S)N2CCCCCC2)cc1,-2%,45µM*,21%,4.0,-3.1,-1.7%[38.3 µM],0.2%
Cc1cc(O)c(C(C)C)cc1NC(=O)Cn1nc(C)c2ccccc2c1=O,-6%,18%,5%,-1.5,-3.5,-0.7%[38.3 µM],-2.1%
N#Cc1cccc(S(=O)(=O)NCC(=O)OCC(=O)c2ccc[nH]2)c1,-10%,24%,-1%[15.4 µM],3.6,2.1,-1.2%,-2.4%
Cc1cc(C)n(CCNCc2c(C(=O)N3C[C@@H](C)O[C@@H](C)C3)nc3ccc(Cl)cn23)n1,1%,1%,7%,0.4,-2.1,4.2%,x
Cc1ccc(S(=O)(=O)N2CCC(C(=O)OC(C)C(=O)N3CCOCC3)CC2)cc1 (stereo unspecified),-4%,x,13%,x,0.5,1.8%,0.4%
O=C(NCc1cccc(Cl)c1)C1CCC(=O)N(CCCN2CCOCC2)C1 (stereo unspecified),10%,9%,0%,-1.1,3.3,0.2%,-3.1%
CCOc1ccccc1NC(=O)NC1CCCc2ccccc21 (stereo unspecified),-5%,15%,-27%,0.0,3.0,1.9%,-2.8%
COc1ccc(-c2nc3ccccc3c(=O)n2CCc2ccc(O)cc2)cc1,-23%,-1%,-12%,0.1,3.1,2.7%,-1.3%
Cc1ccc(S(=O)(=O)N2C[C@H]3C(=O)C[C@@H](c4cccs4)N(S(=O)(=O)c4ccc(C)cc4)[C@H]3C[C@H]2c2ccccc2)cc1,x,x,x,x,-4.9,3.8%,-3.2%
CCOC(=O)N/N=C(\C)c1ccc(OC(F)F)cc1OC(F)F,5%,5%,-9%,-1.6,-3.1,2.0%,-1.0%
COc1ccc(N=CC2=C(O)CC(c3ccccc3)CC2=O)c(OC)c1 (stereo unspecified),-4%,-5%,4%,18,0.5,8.2%,-0.8%
Cc1ccc(-n2c(C)cc(C=C3C(=O)CC(C)(C)CC3=O)c2C)cc1,7%,1%,-8%,15,-0.3,2.0%,2.2%
O=S(=O)(c1ccccc1)N1CCN(Cc2cccc(Br)c2)CC1,11%,x,-16%[15.4 µM],x,-1.8,-1.7%,0.8%
CC(=O)Nc1cccc(NC(=O)C2C3C=CC(C3)C2C(=O)O)c1 (stereo unspecified),15%,-51%,u,-2.8,2.2,-3.0%,0.4%
O=C(Nc1ccc(N2CCN(C(=O)c3ccco3)CC2)cc1)c1ccccc1,-19%,13%,-6%[15.4 µM],0.6,0.2,3.4%,x
O=C(N/N=C1\CCCCc2ccccc21)c1ccccn1,-1%,-50%,5%[15.4 µM],-1.5,3.0,-0.9%,x
CCc1nnc(NC(=O)c2cccc(S(=O)(=O)N3CCCC3)c2)s1,-3%,-1%,12%[15.4 µM],-0.4,-1.8,6.5%,-0.6%
CC1CCN(Cc2nnnn2-c2ccc(Cl)cc2)CC1,3%,11%,2%,12,-2.2,4.7%,-1.1%
COc1ccc(NC(=O)Nc2ccccc2F)c([N+](=O)[O-])c1,5%,16%,-78%[inhibitor],5.0,-7.2,u,0.8%
O=C(c1ccc(Br)o1)N1CCN(c2ccc(F)cc2)CC1,14%,5%,-53%[inhibitor],1.1,0.8,-1.3%,-1.1%
CC(OC(=O)c1ccccc1NS(=O)(=O)c1cccc(N)c1)C(=O)N(C)Cc1ccccc1 (stereo unspecified),-4%,-9%,-10%,1.6,-2.0,-0.5%,-10%
CC1(C)Cc2ccccc2C(=NC(Cc2ccccc2)C(=O)O)N1 (stereo unspecified),5%,18%,-4%,-6.2,-5.6,2.4%,-3.0%
Cc1oc(C(C)(C)C)cc1C(=O)N1CCCC1C(=O)O (stereo unspecified),-4%,25%,-11%,2.0,-3.1,-3.0%,0.2%
O=S1(=O)C[C@@H](O)[C@@H](Nc2ccccc2)C1,3%,12%,4%[15.4 µM],0.8,2.2,0.8%,-1.4%
CC(C)N(C(=O)Cn1cc(SCC(=O)NCc2ccco2)c2ccccc21)C(C)C,-21%,-3%,13%[15.4 µM],-2.3,-1.5,-0.2%,-3.3%
O=C(O)C1CCCCC1C(=O)NCCc1ccc(F)cc1 (stereo unspecified),-6%,7%,-21%,-5.2,-1.4,0.1%,x
Cc1cc(NC(=O)c2cnn3c(C(F)(F)F)cc(-c4ccccc4)nc23)no1,-6%,u,-24%,2.4,2.6,x,-5.0%
COc1ccc(S(=O)(=O)Nc2cccc(-n3cnnn3)c2)cc1,9%,13%,-3%,x,1.2,-0.2%,-1.6%
COCCCn1c(C(=O)NCCC2=CCCCC2)cc2c(=O)n3ccccc3nc21,8%,16%,7.1µM*,x,-1.3,9.5%,3.6%
COc1ccccc1N(CC(=O)NC(C)(C)C)C(=O)c1ccc(Cl)nc1,6%,11%,-50%[inhibitor],1.9,-3.5,1.3%,1.0%
